Screening results from PubChem BioAssay.
VDR inhibitor = vitamin D3 receptor (human) inhibition. P11473. VDR-SRC2-3 peptide fluorescence polarization, 2 h. Potency, µM, for inactives: max response, negative = inhibition, most hits filed as inhibitors. 400,000 compounds, 0.93% hits. AID 504847; active = well fitted inhibition curve with a large enough effect; inconclusive = small, poorly fitted or top-dose-only effect, or another doubt; inactive = no such curve, though single readings can be large or run the other way; also: series mostly up to about 120 µM
Target sequence (P11473 whole entry, looked up): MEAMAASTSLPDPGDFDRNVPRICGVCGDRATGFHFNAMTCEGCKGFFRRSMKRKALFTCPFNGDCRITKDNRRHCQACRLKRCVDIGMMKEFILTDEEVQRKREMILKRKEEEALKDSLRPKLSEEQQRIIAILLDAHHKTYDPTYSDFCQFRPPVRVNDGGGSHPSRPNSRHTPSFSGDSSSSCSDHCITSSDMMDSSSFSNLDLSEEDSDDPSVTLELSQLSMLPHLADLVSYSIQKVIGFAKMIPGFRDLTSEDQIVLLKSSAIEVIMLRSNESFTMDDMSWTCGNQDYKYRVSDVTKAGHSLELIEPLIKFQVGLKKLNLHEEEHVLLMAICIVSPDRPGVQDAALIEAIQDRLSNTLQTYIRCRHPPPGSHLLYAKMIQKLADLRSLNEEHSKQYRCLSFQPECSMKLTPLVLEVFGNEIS
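Reagent solutions, kept cold and dark, are dispensed first; compounds are then pinned in at 23 nl, plates briefly spun, and incubated 2 h at ambient temperature. Inhibition of VDR–SRC2-3 peptide binding is read by fluorescence polarization.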
* = called active by the depositor; ? = inconclusive; & = joins results of further samples; ! = not confirmed by another sample. % is scaled to controls: 0 for no effect and ±100 for the full control effect; potency is read from the fitted curve at half-maximal effect. The list is partial. The share of hits here may be higher or lower than overall.

SMILES	VDR inhibitor
COc1ccc(CCn2c(O)c(/C=N/N3CCOCC3)c(=O)[nH]c2=O)cc1OC	-10%
O=C1NC(=O)C(=Cc2ccc(Oc3ccc([N+](=O)[O-])cc3)cc2)C(=O)N1	32µM*
CCN1CCN(C(=O)COc2ccc(S(=O)(=O)Nc3ccc(Cl)cc3)cc2)CC1	-13%
Cc1ccc(CNC2=NCCS2)cc1	5%
O=C(Cc1c(Cl)cccc1Cl)N1CCN(Cc2ccccc2)CC1	?
CN1C2CC3CC1C(O3)C2O (stereo not given)	-5%
COc1cccc(NC(=O)[C@@H](NC(=O)N2C[C@H]3C[C@@H](C2)c2cccc(=O)n2C3)C(C)C)c1	-14%
CCC1(c2ccccc2)C(=O)N(COC)C(=O)N(COC)C1=O	9%&-1%
COc1ccc(-n2c(-c3ccccc3)nc3ccccc3c2=O)cc1	3%
O=c1[nH]c2sccc2c2ccccc12	1%
COC([CH2][Hg])CNC(=O)c1ccccc1OCC(=O)O (stereo not given)	5.6µM*
Clc1cccc(N2CCNCC2)c1	-9%&-4%
CC(C)(C)c1ccc(OCC(=O)Nc2ccc(Cl)cc2C(=O)c2ccccc2)cc1	-15%
C=CCSSCC=C	20µM*
CCSc1nnc([C@@H](N)Cc2ccccc2)o1	-5%
CCC(COC(=O)c1cc(OC)c(OC)c(OC)c1)(c1ccccc1)N(C)C (stereo not given)	16%&9%&-2%&-5%
O=C1NC(=O)N(c2ccc(Cl)cc2)C(=O)/C1=C/c1coc2ccc(O)cc2c1=O	?
CC(C)C[C@H]1C(=O)N2CCC[C@H]2[C@]2(O)O[C@](NC(=O)[C@@H]3C=C4c5cccc6[nH]c(Br)c(c56)C[C@H]4N(C)C3)(C(C)C)C(=O)N12	28µM*!
Cc1cc(CN(C)C)c(OC(=O)N(C)C)cc1C	-7%
CC/C(=N\NC(=O)c1ccccc1O)c1c(O)n(C2CCCCC2)c(=O)[nH]c1=O	-19%

Among those listed so far, these have a halogen:
SMILES	VDR inhibitor
CCN1CCN(C(=O)COc2ccc(S(=O)(=O)Nc3ccc(Cl)cc3)cc2)CC1	-13%
O=C(Cc1c(Cl)cccc1Cl)N1CCN(Cc2ccccc2)CC1	?
Clc1cccc(N2CCNCC2)c1	-9%&-4%
CC(C)(C)c1ccc(OCC(=O)Nc2ccc(Cl)cc2C(=O)c2ccccc2)cc1	-15%
O=C1NC(=O)N(c2ccc(Cl)cc2)C(=O)/C1=C/c1coc2ccc(O)cc2c1=O	?
CC(C)C[C@H]1C(=O)N2CCC[C@H]2[C@]2(O)O[C@](NC(=O)[C@@H]3C=C4c5cccc6[nH]c(Br)c(c56)C[C@H]4N(C)C3)(C(C)C)C(=O)N12	28µM*!

Following part
SMILES	VDR inhibitor
Oc1c(Br)c(Br)c(Br)c(Br)c1Br	?
COc1ccc(C(=O)OC2CC[C@@]3(C)C4CCC5[C@]6(O)CC(O)[C@@]7(O)C(CN8CC(C)CCC8[C@@]7(C)O)[C@]6(O)C[C@@]53O[C@]24O)cc1OC (stereo not given in full)	1%
CCN(CC)C(=O)COc1cc(C)cc2oc(=O)c3c(c12)CCCC3	-3%
Clc1ccc2[nH]c3c(c2c1)CCNC3	9%
O=C(Cc1cccs1)N1CCC2(CC1)OCCO2	13%
COc1ccc(-c2nn(CCC#N)cc2C(=O)Nc2ccccc2Cl)cc1	17%
Cc1nnc2ccc(N3CCN(C)CC3)nn12	16%
Cc1cc(C(C#N)c2ccc(Cl)cc2)c(Cl)cc1NC(=O)c1cc(I)cc(I)c1O (stereo not given)	?
CC(NC(=O)N1CC1(C)C)c1ccccc1 (stereo not given)	6%
CC(=O)N1N=C(c2c(O)n(C)c(=O)n(C)c2=O)CC1c1ccccc1 (stereo not given)	-4%
CCOc1ccc(CN2CCCC(C(=O)c3ccccc3OC)C2)cc1 (stereo not given)	7%
O=c1cccc2n1C[C@H]1C[C@@H]2CN2CCCC[C@@H]12	-4%
COC(=O)C1=C(c2ccc3ccccc3c2)C[C@@H]2CC[C@H]1N2C(=O)NCc1ccc(F)cc1	3%
COC1C(O)C(C)OC(OC2C(Oc3cccc4c(O)c5c(=O)oc6ccc(C)c7c(=O)oc(c34)c5c67)OC(C)C(O)C2O)C1O (stereo not given)	0%
CCOc1ccc(-n2c(/C=C/c3ccccc3)nc3ccccc3c2=O)cc1	11%
CNC(=O)Oc1cccc2ccccc12	14µM*!
O=c1[nH]c(=O)n(Cc2ccco2)c(O)c1/C=N/N1CCCCC1	-10%
CN(C)C1=NP(N(C)C)(N(C)C)=NC(c2ccccc2)=N1	4%
COP(=O)(OC)C(NC(=O)c1ccc(C)cc1)C(Cl)(Cl)Cl (stereo not given)	-6%
Cc1ccc(N)cc1Cl	-20%

At a glance, some entries already given:
SMILES	VDR inhibitor
COP(=O)(OC)C(NC(=O)c1ccc(C)cc1)C(Cl)(Cl)Cl (stereo not given)	-6%
Cc1ccc(N)cc1Cl	-20%

(next part)
SMILES	VDR inhibitor
COC(=O)C1=C(c2ccc(S(C)(=O)=O)cc2)C[C@@H]2CC[C@H]1N2C(=O)NC(C)C	-5%
CCCCCCC(C)(C)c1cc(OC)c2c(c1)OC(C)(C)[C@@H]1CC=C(C)C[C@@H]21	-5%
CCCCn1c(O)c(/C(CC)=N/N2CCCCC2c2cccnc2)c(=O)[nH]c1=S (stereo not given)	?
CCN1C(=O)C(=Cc2ccc(C)s2)C(=O)N(CC)C1=S	?
CCN(C(=O)Oc1ccccc1)c1ccc(C(O)(C(=O)OC)C(F)(F)F)cc1 (stereo not given)	3%
COc1ccc(-n2c(CNCCc3ccc(C)cc3)nc3ccccc3c2=O)cc1	-7%
CCC1CCCCN1P(=O)(c1ccc(C)o1)C(C)(C)C (stereo not given)	4%
C=CCN	12%
CCOC(=O)C1(CCc2ccccc2)CCN(Cc2cccc3c2OCO3)CC1	-4%
CCN(CC)C(=O)c1ccc(NC(=O)c2c(C)noc2C)cc1	4%
Cc1cc([N+](=O)[O-])c2ccccc2[n+]1[O-]	-5%
OC12ONC(c3ccccn3)C1N1CCC2CC1 (stereo not given)	-6%
CCOC(=O)c1c(C)n(Cc2ccccc2)c2ccc(OCC(O)Cn3nc(C)cc3C)cc12 (stereo not given)	-13%
C=CCC1([C@@H](C)CCC)C(=O)NC(=O)NC1=O	-9%
O=P(O)(O)C12CC3CC(CC(C3)C1)C2	11%
CC(=O)c1ccc2c(c1)C1C(Cl)C(Sc3ccccc3[N+](=O)[O-])CC1C(c1ccccc1[N+](=O)[O-])N2 (stereo not given)	16%
COc1cc2oc(=O)c(CC(=O)N3C[C@H]4C[C@@H](C3)c3cccc(=O)n3C4)c(C)c2cc1Cl	-20%
Cc1ccc(CN2CCC3CCC(C3)C2)c(O)c1 (stereo not given)	-13%
Cc1ccc(-n2c(O)c(C=NCc3ccccn3)c(=O)[nH]c2=S)cc1	-24%
CC(C)C[C@H]1C(=O)N2CCC[C@H]2[C@]2(O)O[C@](NC(=O)C3C=C4c5cccc6[nH]c(Br)c(c56)C[C@H]4N(C)C3)(C(C)C)C(=O)N12 (stereo not given in full)	-2%

Part of the list above, reformatted.
Compound,VDR inhibitor
Cc1cc(CN(C)C)c(OC(=O)N(C)C)cc1C,-7%
CC/C(=N\NC(=O)c1ccccc1O)c1c(O)n(C2CCCCC2)c(=O)[nH]c1=O,-19%
Oc1c(Br)c(Br)c(Br)c(Br)c1Br,?
COc1ccc(C(=O)OC2CC[C@@]3(C)C4CCC5[C@]6(O)CC(O)[C@@]7(O)C(CN8CC(C)CCC8[C@@]7(C)O)[C@]6(O)C[C@@]53O[C@]24O)cc1OC (stereo not given in full),1%
CCN(CC)C(=O)COc1cc(C)cc2oc(=O)c3c(c12)CCCC3,-3%
Clc1ccc2[nH]c3c(c2c1)CCNC3,9%

Remaining list, next part:
SMILES	VDR inhibitor
CC(=O)C1CCC2C3C(N4CC4)CC4=CC(=O)CCC4(C)C3CCC12C (stereo not given)	-22%
O=S(=O)(c1ccccc1)N1CC1c1ccccc1 (stereo not given)	12%
Cc1ccc(NC(=O)[C@@H](NC(=O)N2C[C@H]3C[C@@H](C2)c2cccc(=O)n2C3)C(C)C)cc1	-16%
O=Cc1cn(Cc2ccccc2[N+](=O)[O-])c2ccccc12	0%
Cc1cc(S(=O)(=O)NCc2ccccc2)ccc1OCC(=O)N1CCN(C)CC1	-1%
O=C1C2CC=CCC2C(=O)N1SC(Cl)(Cl)Cl (stereo not given)	4µM*
OC(CN1CCCCC1)c1c[nH]c2ccccc12 (stereo not given)	4%
Cc1cc2c(C(F)(F)F)cc(=O)oc2c2c1NCCC2	-1%
CCn1cc(C=C2C(=O)NC(=O)NC2=O)c2ccccc21	5%
Cc1ccccc1C(=O)NNC(=S)NC(=O)COc1ccccc1	?
COc1cc(/C=C(/C)[N+](=O)[O-])ccc1OCc1ccccc1Cl	8.9µM*
O=c1oc(Cl)c(Cl)c2ccccc12	25µM*
C[C@]12CCC3C(CC[C@H]4C[C@@H](O)CC[C@]34C)C1C[C@@H](O)C2=O (stereo not given in full)	-4%
C=CCn1c(O)c(C(CC)=NC2CC2)c(=O)[nH]c1=O	-5%
C=CCn1c(O)c(C(CC)=Nc2ccc(NC(C)=O)cc2)c(=O)[nH]c1=O	-5%
Clc1ccc(NC2=NCCCS2)cc1Cl	-12%
COc1ccc(CCN(C)Cc2c(F)cccc2F)cc1OC	4%
Cc1cc(S(=O)(=O)NCC(C)C)ccc1OCC(=O)N1CCN(Cc2ccccc2)CC1	5%
O=C(Cc1ccccc1)N1CCN(Cc2cccc(Cl)c2)CC1	-14%
COc1ccc(C(=O)N2CCOCC2)cc1S(=O)(=O)N1CCC(C)CC1	13%
CCCCCCCCCCOC(=O)CCN1CC1	-19%
Brc1c(Br)c(Br)c2n[nH]nc2c1Br	45µM*
CC(=O)OC1CC[C@]2(C)C(CCC3C2CC[C@]2(C)C(C4=CC(=O)OC4)C(OC(C)=O)CC32O)C1 (stereo not given in full)	13%
O=C(CCC(=O)N1CC2C[C@@H](C1)Cn1c2cccc1=O)NCCc1ccccc1F	13%
CC(O)CNc1ccc([N+](=O)[O-])c2cccnc12 (stereo not given)	-9%
N[C@@H](Cn1cc(I)c(=O)[nH]c1=O)C(=O)O	-4%
CCCCC1(CCC)C(=O)NC(=S)NC1=O	-1%
Cc1nc2ccccc2c(=O)n1-c1cc([N+](=O)[O-])cc([N+](=O)[O-])c1	2%
Cc1c(N=Nc2c(O)n(C)c(=O)n(C)c2=O)c(=O)n(-c2ccccc2)n1C	-8%
O=S(=O)(NC1CN2CCC1CC2)c1ccc(Cl)cc1 (stereo not given)	-13%
COC(=O)c1cc2c(s1)=NC=NP=2(N1CCOCC1)N1CCOCC1	11%&-8%
CCOC(C(=O)OCCCN(CC)CC)(c1ccccc1)c1ccccc1	-14%
C[C@]12CCC(=O)C=C1C=C[C@@H]1[C@@H]2CC[C@@]2(C)[C@H]1CC[C@@]2(O)CCC(=O)O	-14%
COc1ccc(CCN)cc1O	-9%
CC(C)CN1CC2(CCN(C(=O)c3ccncc3)CC2)C1	-1%
COC(=O)C1=C(c2ccc(S(C)(=O)=O)cc2)C[C@@H]2CC[C@H]1N2C(=O)NCCNC(C)=O	-4%
CN(C)P1(N(C)C)=Nc2c(c(N)nn2C)C(c2ccccc2)=N1	23%&8%
CN1/C(=C\C=C2C(=O)NC(=O)NC2=O)C(C)(C)c2ccccc21	-15%
Cc1cc(C=O)c(C)n1CC1CCCO1 (stereo not given)	9%
Nc1ccc(S(=O)(=O)N2CCCCC2c2cccnc2)cc1 (stereo not given)	-12%
CC(=O)[C@@]1(O)CCC2C3CC=C4C[C@@H](O)CC[C@]4(C)C3CC[C@@]21C (stereo not given in full)	-8%
O=P(O)(O)C(Cl)(Cl)P(=O)(O)O	3%&-6%
CCCC1(CC(C)C)C(=O)NC(=S)NC1=O	-8%
